Compound activity deposited in PubChem BioAssay by National Center for Advancing Translational Sciences (NCATS).
nsP2pro primary: inhibitors of chikungunya virus nsP2 protease | Q8JUX6 | FRET peptide cleavage, nsP2pro, fluorescence 1 h | Potency, µM (highest dose often 24.9 µM), for inactives: at the top dose activity change, negative = inhibition, usual class: inhibitors | actives 1.1% (n = 31,000) | AID 1964107; active means well fitted inhibition curve with a large enough effect; inconclusive means small, poorly fitted or top-dose-only effect; inactive means no such curve, though single readings can be large or run the other way; note: nearly all actives have a fitted effect of over 60% in size; a reference inhibitor and vehicle were the controls
Target sequence (Q8JUX6 whole entry, looked up): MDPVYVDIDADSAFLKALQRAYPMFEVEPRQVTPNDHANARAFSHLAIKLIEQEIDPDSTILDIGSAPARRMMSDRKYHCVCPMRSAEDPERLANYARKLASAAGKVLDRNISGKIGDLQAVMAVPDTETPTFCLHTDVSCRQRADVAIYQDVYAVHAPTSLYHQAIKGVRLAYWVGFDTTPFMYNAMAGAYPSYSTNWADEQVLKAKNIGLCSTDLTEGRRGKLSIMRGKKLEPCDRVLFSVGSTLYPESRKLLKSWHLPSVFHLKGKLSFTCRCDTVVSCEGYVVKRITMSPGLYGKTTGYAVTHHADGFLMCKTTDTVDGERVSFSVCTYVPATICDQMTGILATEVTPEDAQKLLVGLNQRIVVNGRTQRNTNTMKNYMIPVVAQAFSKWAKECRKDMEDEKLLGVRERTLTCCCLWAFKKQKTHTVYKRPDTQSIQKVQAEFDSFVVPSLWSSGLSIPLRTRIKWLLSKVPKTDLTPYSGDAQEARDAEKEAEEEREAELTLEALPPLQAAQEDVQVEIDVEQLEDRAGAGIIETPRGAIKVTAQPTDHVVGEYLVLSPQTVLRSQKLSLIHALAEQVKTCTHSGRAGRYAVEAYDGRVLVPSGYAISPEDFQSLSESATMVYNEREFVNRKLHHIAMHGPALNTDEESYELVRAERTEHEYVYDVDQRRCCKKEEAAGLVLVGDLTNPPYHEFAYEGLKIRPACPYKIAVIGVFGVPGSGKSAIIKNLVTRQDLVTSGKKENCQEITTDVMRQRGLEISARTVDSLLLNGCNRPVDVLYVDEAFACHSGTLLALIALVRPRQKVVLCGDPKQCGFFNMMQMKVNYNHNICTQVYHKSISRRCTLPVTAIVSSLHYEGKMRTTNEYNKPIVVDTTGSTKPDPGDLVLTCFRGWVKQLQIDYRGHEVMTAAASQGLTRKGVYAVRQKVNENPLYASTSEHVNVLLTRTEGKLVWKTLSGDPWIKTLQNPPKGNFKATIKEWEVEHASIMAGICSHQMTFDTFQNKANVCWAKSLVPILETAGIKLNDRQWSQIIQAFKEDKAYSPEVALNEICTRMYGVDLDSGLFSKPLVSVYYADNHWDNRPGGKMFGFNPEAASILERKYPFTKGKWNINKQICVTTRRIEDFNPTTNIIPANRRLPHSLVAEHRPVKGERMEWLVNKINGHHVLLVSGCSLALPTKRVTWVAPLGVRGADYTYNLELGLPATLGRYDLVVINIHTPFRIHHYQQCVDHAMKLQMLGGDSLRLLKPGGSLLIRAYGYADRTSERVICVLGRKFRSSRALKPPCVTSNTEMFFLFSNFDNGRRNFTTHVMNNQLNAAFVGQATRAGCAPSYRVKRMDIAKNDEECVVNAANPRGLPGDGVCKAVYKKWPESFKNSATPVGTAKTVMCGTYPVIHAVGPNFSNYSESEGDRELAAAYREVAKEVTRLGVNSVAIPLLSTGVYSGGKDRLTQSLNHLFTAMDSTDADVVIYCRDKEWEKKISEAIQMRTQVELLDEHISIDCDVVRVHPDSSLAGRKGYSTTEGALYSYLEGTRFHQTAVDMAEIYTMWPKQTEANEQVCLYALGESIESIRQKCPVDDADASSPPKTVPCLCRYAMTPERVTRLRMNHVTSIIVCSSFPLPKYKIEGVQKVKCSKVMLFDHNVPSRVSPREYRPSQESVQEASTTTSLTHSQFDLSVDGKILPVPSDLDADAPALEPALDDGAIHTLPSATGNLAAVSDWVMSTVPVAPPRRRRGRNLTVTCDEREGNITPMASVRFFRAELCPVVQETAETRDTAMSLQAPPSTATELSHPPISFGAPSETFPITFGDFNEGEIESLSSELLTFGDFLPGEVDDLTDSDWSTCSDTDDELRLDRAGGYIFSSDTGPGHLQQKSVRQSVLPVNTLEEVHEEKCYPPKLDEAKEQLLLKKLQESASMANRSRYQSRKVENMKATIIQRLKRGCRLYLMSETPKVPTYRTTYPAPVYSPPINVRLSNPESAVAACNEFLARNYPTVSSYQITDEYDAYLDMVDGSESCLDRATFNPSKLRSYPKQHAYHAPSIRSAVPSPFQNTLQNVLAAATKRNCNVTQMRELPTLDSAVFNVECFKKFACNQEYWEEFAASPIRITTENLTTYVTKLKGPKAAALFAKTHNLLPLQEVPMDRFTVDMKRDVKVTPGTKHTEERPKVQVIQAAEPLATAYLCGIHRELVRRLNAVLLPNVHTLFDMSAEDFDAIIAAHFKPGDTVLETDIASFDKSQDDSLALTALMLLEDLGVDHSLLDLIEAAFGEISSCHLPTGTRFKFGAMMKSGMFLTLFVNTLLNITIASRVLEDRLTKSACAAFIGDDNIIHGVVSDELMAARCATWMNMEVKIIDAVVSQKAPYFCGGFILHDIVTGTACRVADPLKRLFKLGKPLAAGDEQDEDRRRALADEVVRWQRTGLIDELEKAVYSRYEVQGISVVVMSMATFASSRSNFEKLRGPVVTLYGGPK
An asterisk follows results filed as active; i = inactive; ? = inconclusive; & = joins results of further samples; [ ] = remark or other dose. % is set by controls: 0 for no effect and ±100 for the full control effect; potency is the fitted concentration of half-maximal effect. The list is partial. The share of hits here may be higher or lower than overall.

SMILES | nsP2pro primary
CCc1ccc(OCC2c3cc(OC)c(OC)cc3CCN2C(=O)c2ccc(S(=O)(=O)N3CCCC3)cc2)cc1 (stereo not drawn) | -8%
CCCC1CCN(C(=O)c2coc(COc3ccc4ccc(OC)cc4c3)n2)C1 (stereo not drawn) | -1%
Cc1ccc(NC2=CC(=O)c3sc(C)nc3C2=O)cc1 | ?
CC(C)(C)OC(=O)N1CCN(c2ncc(NCc3ccc(-c4ccc(C#N)cc4)o3)cn2)CC1 | i
COCC1CN(C(=O)c2ccc(OC)nc2OC)CC12CCNCC2 (stereo not drawn) | -22%
CSCCC(NS(=O)(=O)c1ccc2c(c1)oc(=O)n2C)C(=O)NCc1ccc(Cl)cc1 (stereo not drawn) | -19%
COCc1ccc(C(=O)NCc2cc(C)cc3c(C)c(C)[nH]c23)o1 | ?
COc1ccc(C)cc1NC(=O)Cc1ccc(NC(=O)N2CCCCc3ccccc32)cc1 | -11%
CC(C)c1c(-c2ccccc2)nc2c(C#N)c[nH]n2c1=O | ?
Cc1nc2cnccn2c1C(=O)N1CCC(C#N)CC1 | -2%[39.2 µM]
CC(=O)C1(C)CCC2C3C=C(C)C4=CC(=O)CCC4(C)C3CCC21C (stereo not drawn) | 11%
CCC(=O)N1c2ccccc2CC1C(=O)NCc1ccc(CC)cc1 (stereo not drawn) | -4%
Cc1oc(-c2ccc(C(=O)N(C)Cc3ccccc3)cc2)nc1CN1CCc2ccccc21 | ?
Cc1cccc(-c2nc3ccc(C(=O)NC4CCCCCC4)cc3o2)n1 | 3%[39.2 µM]
CC(=O)N1CCN(C(=O)c2cc(-c3ccc(F)cc3)c3nncn3n2)CC1 | -6%
O=C(NC1CCOC2(CCOCC2)C1)c1ccc(-c2cnco2)cc1 (stereo not drawn) | i
CN1CCN(c2ccc(Nc3nc(-c4ccncc4)nc4ccccc34)cc2F)CC1 | 3%
O=C(C1CCCC1)N1CCC(Oc2cccnc2)C1 (stereo not drawn) | 1%
CCCCc1ccc(NC(=O)CSc2nnc3[nH]c(=O)cc(C)n23)cc1 | -16%
COc1nccc(-c2nc(Nc3ccc(F)c(F)c3)c3ccccc3n2)c1Cl | i
CC(C)(C)c1ccc(-c2cc(C[C@H]3CNCC[C@H]3CC(=O)N3CCOCC3)no2)cc1 | ?
C/C=C1/C[N+](C)([O-])C2Cc3c([nH]c4ccccc34)C(=O)CC1C2C(=O)OC (stereo not drawn) | 1%
CCCCCCCCCCCCCCCCOP(=O)([O-])OCC[N+](C)(C)C | ?
COc1ccc(NC(=O)C2C[C@H](C)CC[C@H]2C(C)C)cc1 (stereo partly drawn) | -4%
CCCCN(C)CCNC(=O)c1nn(-c2ccc(OC)cc2)c(=O)c2c1c1ccccc1n2C | 0%

Next part:
SMILES | nsP2pro primary
O=S(=O)(c1ccc(Br)cc1)N1CCN(S(=O)(=O)c2ccc3c(c2)OCCO3)CC1 | -9%
Cc1ccc(Sc2c(C(=O)NCc3ccccc3C)[nH]c3ccccc23)cc1 | -22%
CC(C)c1nc(-c2ccc(OC3CCN(C(=O)c4n[nH]c5ccccc45)C3)cc2)no1 (stereo not drawn) | i
C1N2CN3CN1CN(C2)C3 | 5%
CN(C)c1cc(CNCC(C)(C)C)c(O)c2c1C[C@H]1C[C@H]3[C@H](N(C)C)C(=O)C(C(N)=O)=C(O)[C@@]3(O)C(=O)C1=C2O | 20%
COC(=O)C(c1ccccc1Cl)N1CCc2sccc2C1 (stereo not drawn) | 25%
CC(C)CN1C(=O)C(C)(C)[S+](=O)([O-])[C@@H]2CN(c3ccc(OC(F)(F)F)cc3)C[C@@H]21 | i
C[C@H](CCCC(C)(C)O)[C@H]1CC[C@H]2[C@@H]3CC=C4C[C@@H](O)CC[C@]4(C)[C@H]3CC[C@]12C | -7%
COc1ccc2[nH]c3c(c2c1)CCN(C(=O)c1cccc(Cl)c1)C3c1ccc(F)cc1 (stereo not drawn) | -9%
COc1cc(CN(C(=O)COc2ccccc2Cl)c2ccccn2)cc(OC)c1OC | -19%
CCc1cccc(C)c1NC(=O)CN1C(=O)c2cccc3cccc1c23 | -12%
Cc1cc(NC(=O)Nc2nnc(-c3ccncc3)s2)ccc1Br | -17%
COc1cccc(C2NC(=O)c3n[nH]c(-c4cccs4)c32)c1 (stereo not drawn) | -13%
O=C(Nc1ccc(C(O)(C(F)(F)F)C(F)(F)F)cc1)c1ccc(C(F)(F)F)cc1 | ?
CCOc1ccc(Cc2nccc3cc(OCC)c(OCC)cc23)cc1OCC | 32%
COc1ccc(Cl)cc1CNCCSc1nnnn1-c1ccccc1 | -30%
C[C@@H]1CN(Cc2ccccc2)C[C@H]1c1nc2c(cnn2C2CCOCC2)c(=O)[nH]1 | 13%
O=C(O)P(=O)(O)O | -8%&3%
CC(C)C[C@@H]1NC(=O)[C@@H](Cc2ccccc2)NC(=O)C(CCCCCC(=O)C2CO2)NC(=O)[C@@H]2CCCCN2C1=O (stereo partly drawn) | ?
COc1cc(O)c2c(c1)C1=CC(O)C(O)CC1(C)OC2=O (stereo not drawn) | -4%
O=C(COc1ccccc1)N[C@H]1CO[C@H]2[C@@H]1OC[C@@H]2Nc1nccc(-c2cccs2)n1 | -12%
CC(=O)c1cccc(NC(=O)c2cnn3c(C)cc(C)nc23)c1 | i
CNC(=O)c1ccc2c(C(=Nc3cccc(CN(C)C)c3)c3ccccc3)c(O)[nH]c2c1 | 15%
COc1ccccc1NC(=O)N1CCN(c2ccc3nnc(-c4ccc(F)cc4)n3n2)CC1 | 12%
COc1ccc(COc2ccc(-c3nc4ccccc4[nH]3)cc2)cc1OC | 2%

Pulled by structure from above:
SMILES | nsP2pro primary
COc1cc(O)c2c(c1)C1=CC(O)C(O)CC1(C)OC2=O (stereo not drawn) | -4%
O=C(O)P(=O)(O)O | -8%&3%

Following part
SMILES | nsP2pro primary
Cc1cccc(CC(=O)NCCc2sc3nc(-c4ccc(F)cc4)nn3c2C)c1 | -8%
CC(=O)N1[C@H]2CC[C@@H]1c1cnc(-c3ccc(F)cc3)nc1C2 | -4%
CCC(C)C1NC(=O)C2CCCN2C(=O)C(CC(O)CO)OC(=O)CCNC(=O)C(C)N(C)C(=O)C(C(C)C)N(C)C1=O (stereo not drawn) | -1%[10 µM]
CCCN(CCC)S(=O)(=O)c1ccc(C(=O)O)cc1 | -11%&2%
C=C1CCC[C@]2(C)CC/C(=C(/CO)C(=O)OC)C[C@@H]12 | -10%
CCOc1ccccc1NC(=O)CCn1nc(C)c(S(=O)(=O)N2CCCCC2)c1C | -13%
Cc1ccc(Nc2nc(C)cc(C)n2)c(C(=O)O)c1 | ?
C=CCCC(=O)N1c2cccc3c2[C@@H](C[C@H]1C(N)=O)CN(c1ccccc1)C3=O | -2%[10 µM]
C=C1C(OC(C)=O)CCC2(C)CC3(O)OC(=O)C(C)=C3CC12 (stereo not drawn) | 1%
Cc1oc2ccc(O)c(CN3CCCC(C)C3)c2c1C(=O)Nc1ccccc1 (stereo not drawn) | -8%
COC[C@@H]1OC[C@@]2(C)C3CC[C@@H](O)[C@@H](CC(=O)NCc4cccs4)[C@]3(C)CC[C@H]2O1 (stereo partly drawn) | -8%
CC[C@@]1(O)CC2CN(CCc3c([nH]c4ccccc34)[C@](C(=O)OC)(c3cc4c(cc3OC)N(C)C3[C@@](O)(C(N)=O)[C@H](O)[C@]5(CC)C=CCN6CC[C@@]43[C@@H]65)C2)C1 (stereo partly drawn) | 15%
COc1ccc(-c2c(-c3cc(C(=O)O)ccn3)ncn2C)cc1 | 176%[activator]
CCC(C)NC(=O)c1ccc2nc(CCc3ccccc3)oc2c1 (stereo not drawn) | -8%
O=c1cc(-c2ccccc2)c2ccc3c(c2o1)CN(Cc1cccc(Cl)c1)CO3 | 185%[activator]
CS(=O)(=O)c1ncc(Cl)c(C(=O)N2CCN(c3cccc(Cl)c3)CC2)n1 | 1.6µM*
CCNC(=O)N1CCC(Cc2ccc(C(=O)O)cc2)CC1 | -9%
CCOc1cc(C#N)c(-n2nnc3c(sc4nc(C)cc(C)c43)c2=O)cc1OCC | ?
CCc1nnc2c(Nc3cc(OC)c(Cl)cc3OC)nc3ccccc3n12 | -7%
N#Cc1cccc(-c2cn3c(n2)N(C(=O)c2ccsc2)CCC3)c1 | -23%
Cc1ccsc1CN(C(=O)c1ccc(Br)cc1)C1CCS(=O)(=O)C1 (stereo not drawn) | -13%
O=C(c1nccc2ccccc12)N1CCc2c(nc(-c3ccccc3)[nH]c2=O)C1 | 3%
Cc1ccc(-n2nc(C)c3c(C)c(CCC(=O)NC(C)c4ccccc4)c(C)nc32)cc1 (stereo not drawn) | -4%
Cc1ccc(C)c(N2CCN(C(=O)C3CCN(c4nc(-c5ccc(C(C)C)cc5)no4)CC3)CC2)c1 | -13%
O=C(O)c1cc(O)c2c(c1)[O][Bi][O]2 | -4%[0.199 µM]

Structural class, those above with bromine (3)
SMILES | nsP2pro primary
O=S(=O)(c1ccc(Br)cc1)N1CCN(S(=O)(=O)c2ccc3c(c2)OCCO3)CC1 | -9%
Cc1cc(NC(=O)Nc2nnc(-c3ccncc3)s2)ccc1Br | -17%
Cc1ccsc1CN(C(=O)c1ccc(Br)cc1)C1CCS(=O)(=O)C1 (stereo not drawn) | -13%

Seven consecutive compounds from above:
SMILES | nsP2pro primary
CCc1ccc(OCC2c3cc(OC)c(OC)cc3CCN2C(=O)c2ccc(S(=O)(=O)N3CCCC3)cc2)cc1 (stereo not drawn) | -8%
CCCC1CCN(C(=O)c2coc(COc3ccc4ccc(OC)cc4c3)n2)C1 (stereo not drawn) | -1%
Cc1ccc(NC2=CC(=O)c3sc(C)nc3C2=O)cc1 | ?
CC(C)(C)OC(=O)N1CCN(c2ncc(NCc3ccc(-c4ccc(C#N)cc4)o3)cn2)CC1 | i
COCC1CN(C(=O)c2ccc(OC)nc2OC)CC12CCNCC2 (stereo not drawn) | -22%
CSCCC(NS(=O)(=O)c1ccc2c(c1)oc(=O)n2C)C(=O)NCc1ccc(Cl)cc1 (stereo not drawn) | -19%
COCc1ccc(C(=O)NCc2cc(C)cc3c(C)c(C)[nH]c23)o1 | ?

(more compounds)
SMILES | nsP2pro primary
CCC[C@@H]1C[C@@H](C(=O)N[C@@H]([C@H]2O[C@H](SC)[C@H](O)[C@@H](O)[C@H]2O)[C@@H](C)O)N(C)C1 | -8%&10%
O=C1CN(C(=O)c2cccc(C(F)(F)F)c2)CC(OCc2cccnc2)CN1CC1CCOCC1 (stereo not drawn) | -4%
CC1CN(C(=O)N2CCC(C(=O)N3CCN(c4ccccc4)CC3)CC2)c2cc(Cl)ccc2O1 (stereo not drawn) | -13%
O=c1[nH]c2ccccc2n1CCCN1CCC(n2c(=O)[nH]c3cc(Cl)ccc32)CC1 | 0%
O=C(Nc1ccc(Oc2cccnc2)cc1)C1CCN(CCCc2ccccc2)CC1 | i
Cc1cc(C)n2ncc(C(=O)NC3CCCCC3)c2n1 | -5%
COc1cccc(COC2CN(CCc3ccccc3)C(=O)CN(C(=O)CN3CCOC3=O)C2)c1 (stereo not drawn) | 5%
CCCCNS(=O)(=O)c1ccc(C)c(-c2nnc3c4ccccc4c(C)nn23)c1 | -14%
O=C(Nc1ccc(F)cc1F)c1cc(CN2CCOCC2)on1 | -19%
CC(C)Nc1oc(-c2cccc3ccccc23)nc1C#N | -12%
Cc1ccccc1Cn1c(C(=O)O)c(CNCc2cccc(F)c2)c2ccccc21 | -28%
Cc1c(Cl)cccc1NC(=O)CSc1ncccc1C(=O)Oc1ccccc1Cl | -17%
C[C@]12CCC(=O)C[C@@H]1CC[C@@H]1[C@@H]2CC[C@]2(C)C=CC[C@@H]12 | -8%
COc1ccc(C(=O)N[C@H]2CO[C@H]3[C@@H]2OC[C@@H]3Nc2nccc(-c3ccccc3OC)n2)cc1 | -2%
CC1(O)CCC(C(C)(C)O)CC1 (stereo not drawn) | 0%
Cc1ccn2c(=O)cc(COc3ccc(NC(=O)COc4ccc(Cl)cc4)cc3)nc2c1 | -16%
O=C[C@H](O)[C@@H](O)[C@H](O[C@H]1O[C@H](CO)[C@@H](O[C@H]2O[C@H](CO)[C@@H](O)[C@H](O)[C@H]2O)[C@H](O)[C@H]1O)[C@H](O)CO | -13%
COc1ccc(NC(=O)CCCn2c(=O)c3cccn3c3ccccc32)c(OC)c1 | -9%
Cc1ccc(-c2ccc(=O)n(CC(=O)N(C)CCc3ccco3)n2)cc1 | -21%
CN(C)Cc1nnc(C2CCN(Cc3cnc(-c4ccccn4)nc3)CC2)n1C | i
CCCc1ncc(C[n+]2ccccc2C)c(N)n1 | -7%
O=C(c1cccc(OC2CN(C3CCCC3)C2)c1)N1CCCC1 | 1%
Cc1noc(C)c1[S+](=O)([O-])N1CCC2(CC1)Cc1ccccc1NC2=O | 2%
CCn1ncnc1C(C)NC(=O)Cn1nc(-c2ccccc2)n(CC)c1=O (stereo not drawn) | -13%
COc1ccc(-c2cn3c(n2)sc2cc(C(=O)NCCCc4ccccc4)ccc23)cc1 | -7%
CC1=CC[C@@]2(C)CC[C@@](O)(C(C)C)[C@@H]2[C@@H](O)C1 | 6%
Fc1ccc(F)c(Nc2c3c(nc4ccc(Cl)cc24)CCC3)c1 | -4%
COc1cc(C(=O)Nc2nonc2-c2ccc(C)c(C)c2)cc(OC)c1OC | 3%
COc1ccccc1NC(=O)CSC1=Nc2ccccc2C2=NC(CCC(=O)NCCc3ccccc3)C(=O)N12 (stereo not drawn) | -16%
CCOC(=O)[C@@H](N)CCC(=O)N[C@@H](CSCc1ccccc1)C(=O)N[C@@H](C(=O)OCC)c1ccccc1 | -16%&-18%
